# StopGo RLuc – lowers the Renilla signal of an FMDV 2A StopGo reporter. HEK cells with a luciferase reporter of 2A StopGo recoding. Potency, µM (series often up to 57.5 µM), without a hit: at the highest dose signal change, negative = less light. 0.32% of 120,000 active. AID 1745857; active means well fitted falling curve with a large enough effect; inconclusive means small, poorly fitted or top-dose-only effect; inactive means no such curve, though single readings can be large or run the other way; also: nearly all actives have a fitted effect of over 55% in size; overnight with compound
# 2A firefly – FMDV 2A StopGo reporter, firefly signal; HEK cells with a luciferase reporter of 2A StopGo recoding; Potency, µM (highest dose often 57.5 µM), for inactives: top-dose signal change, negative = less light; AID 1745856; 0.23% of 120,000 active; active = well fitted falling curve with a large enough effect; inconclusive = small, poorly fitted or top-dose-only effect; inactive = no such curve, though single readings can be large or run the other way; also: nearly all actives have a fitted effect of over 60% in size; overnight with compound
# Active calls of the source: *; ? = inconclusive; & = joins results of further samples; [ ] = dose if it differs, or a comment. % is scaled to controls: 0 for no effect and ±100 for the full control effect; potency is read from the fitted curve at half-maximal effect.
SMILES,StopGo RLuc,2A firefly
O=C(Nc1ccccc1)C1CC(=O)N(Cc2ccco2)c2nc3ccccc3n21 (stereo unspecified),0%,36%[activator]
CCCCN(CCCC)CCNC(=O)Cn1nc(CC)n2c(cc3sc(C)cc32)c1=O,4%,9%
O=C1C(=O)N(CCc2ccccc2)C(c2ccc(Cl)cc2)/C1=C(\O)c1ccc2c(c1)OCCO2 (stereo unspecified),-4%,-2%
COc1cccc(-n2nnc3c(=O)n(CC(=O)N4CCC(C)CC4)cnc32)c1,-8%,-9%
O=c1c2nnn(Cc3ccccc3)c2ncn1Cc1nc(-c2ccc(OC(F)(F)F)cc2)no1,-5%,3%
Cn1cnc2c(=O)oc3ccc(S(=O)(=O)N4CCN(c5ccccc5)CC4)cc3c21,10%,5%
CC(C)(C)C1CCc2c(sc(NC(=O)c3cccc(Cl)c3)c2C(=O)NCc2ccco2)C1 (stereo unspecified),0%,0%
COc1ccccc1C(=O)N(Cc1cc2ccccc2[nH]c1=O)c1ccc(C)cc1,25%,0%
CC(C(=O)N1CCNC1=O)N(C)Cc1ccccc1Br (stereo unspecified),1%,8%
O=C(CCCn1ncn2c(cc3occc32)c1=O)NCc1ccccc1F,-3%,-2%
Cc1ccc(NC(=O)c2cc3cc(C)ccc3n2C)cc1,5%&-16%,67%&25%[activator]
COc1ccc(-n2nc(C(=O)Nc3ccccn3)c3c4ccccc4n(C)c3c2=O)cc1,-16%,-19%
CN1C(C(=O)NC2CCCC2)=CC(c2ccco2)=NS1(=O)=O,-2%,13%
CCOCCn1c(CN2CCN(CCO)CC2)nc2c1c(=O)n(C)c(=O)n2C,-4%,-5%
CCn1c(=O)cc(SCC(=O)NCc2ccc(Cl)cc2)c2ccccc21,-2%,-1%
O=C(c1cnn(-c2ccccc2F)c1-n1cccc1)N1CCN(c2ccccc2)CC1,-11%,11%
COc1cc(C2C(C#N)=C(N)OC3=C2C(=O)CC(C)(C)C3)cc(OC)c1OC(=O)N1CCOCC1 (stereo unspecified),3%,4%
CCn1nc(C(=O)OCC(=O)c2ccc(C3CCCCC3)cc2)c2ccccc2c1=O,-7%,-7%
COc1ccc(C(=O)NC(c2ccc(Cl)cc2)c2cc(Cl)c3cccnc3c2O)cc1 (stereo unspecified),2%,-6%
Cc1c(Cl)cccc1NC(=O)Cn1nc(C(F)(F)F)c2c1CCC2,-1%,-13%
CC1CCN(S(=O)(=O)c2ccc3c(c2)N(CC(=O)NCCN(C)C)C(=O)CO3)CC1,-4%,-4%
Cc1ccc2cc3cc(C(=O)N4CCN(c5ccc(Cl)cc5)CC4)oc3nc2c1,1%,15%
CN(C(=O)CSc1nc(N2CCCC2)c2c(c1C#N)CCCC2)c1ccccc1,14%,-3%
CCN(Cc1ccccc1)C(=O)CSc1nc2cn(CC)nc2c(=O)n1Cc1ccc(C)cc1,-2%,-7%
CCN(CC)CCCNC(=O)CN1N=C(c2ccccc2)CCC1=O,-12%,-23%
# New compounds follow
SMILES,StopGo RLuc,2A firefly
O=C(CSc1nc(=O)n(Cc2cccnc2)c2c1CCC2)Nc1ccc(F)cc1F,133%[activator],-4%
CC(C)(C)C1CCc2c(sc3nc(-c4cc5ccccc5oc4=O)[nH]c(=O)c23)C1 (stereo unspecified),-9%,-15%
CCOc1cc(C#N)c(NC(=O)Cn2nnc(-c3ccc(C)cc3)n2)cc1OCC,-14%,-19%
O=C1OCCC1Nc1ccccc1Oc1ccccc1 (stereo unspecified),5%,5%
CCC(=O)Oc1ccc2c(=O)c(-c3ccccc3OC)coc2c1,2%,63%[activator]
COc1ccc(C(CC(=O)O)NC(=O)c2ccc(C(C)(C)C)cc2)cc1 (stereo unspecified),9%,16%
Cc1c(-c2cccc(NC(=O)C(C)(C)C)c2)nc2ncccn12,0%,-13%
O=C(Nc1nc(-c2ccc(Cl)s2)cs1)c1ccc(F)cc1,-7%,56%[activator]
Cc1cccc(-c2cccc3c4c([nH]c23)[C@@H]2C[C@H](N(C)C(=O)Nc3ccccc3C)[C@H]([C@H](C)O)CN2CC4)c1,15%,7%
Cc1ccc(C2c3[nH]c4ccccc4c3CCN2C(=O)c2cccc(C)c2)cc1 (stereo unspecified),28%,13%
COc1ccc(OC)c(NC(=O)C2(n3cnnn3)CCCCC2)c1,6%,14%
Fc1c(F)c(F)c(/C=N/Nc2c(F)c(F)c(F)c(F)c2F)c(F)c1F,-5%,0%
COc1ccc(NC(=O)Cn2c(=O)n(Cc3ccc(C(=O)NCc4ccccc4Cl)cc3)c(=O)c3ccccc32)cc1,-9%,-3%
COc1ccc(Br)cc1CN1CCCC(C(=O)N(C)Cc2ccccc2)C1 (stereo unspecified),-13%,-12%
CCN(CC)CCNc1nc2c(c(=O)[nH]c(=O)n2C)n1CC(O)COc1cccc(C)c1 (stereo unspecified),-11%,-1%
CN(C)c1ccc(NC(=O)C(c2ccccc2)c2ccccc2)cc1,14%,12%
COCCNc1nnc(SCc2coc(-c3ccccc3)n2)s1,-4%,31%[activator]
C[N+]12CC[N+](C)(CC1)CC2,-6%,-8%
C=CCNC(=S)NN=C1CCC(CCC)CC1 (stereo unspecified),15%,23%
CCCSCCCNC(=O)CN1C(=O)COc2ccc(S(=O)(=O)N3CCC(C)CC3)cc21,-2%,-14%
O=C(O)C(c1c[nH]c2ccccc12)N1CCN(Cc2ccccn2)CC1 (stereo unspecified),-10%,-6%
COc1ccc(C(=O)NCCc2nc3ccccc3[nH]2)cc1,-23%,-9%
Cc1ccc(OCc2nc3c4c(ncn3n2)OC2=C(C(=O)CCC2)C4c2ccco2)cc1 (stereo unspecified),?,?
CCNC(=S)NNC(=O)C1CCCC1,33%[activator],?
O=C(Nc1cccc(F)c1)c1ccc2oc(=O)n(Cc3ccccc3)c2c1,3%,6%
# Further results:
SMILES,StopGo RLuc,2A firefly
Cc1ccc(NC(=O)CSc2nc3cc(C)[nH]c3c(=O)[nH]2)c(Br)c1,-14%,-3%
CCn1cnc2c1c(=O)n(CC(=O)N(c1ccccc1)C1CCCCC1)c(=O)n2Cc1ccccc1,?,?
O=C(NCc1cccs1)c1ccc2c(c1)sc1nc(-c3ccc(F)cc3)cn12,15%,92%[activator]
CCc1sc(C(=O)NCCC(C)C)cc1C,0%,66%[activator]
CCOc1ccccc1CNC(=O)C1CCCN(c2nn3cc(-c4ccc(F)cc4)nc3s2)C1 (stereo unspecified),-12%,?
CCC(OC(C)=O)C(CC(C)NC)(c1ccccc1)c1ccccc1 (stereo unspecified),-10%[129 µM],-3%[27 µM]
COC(=O)c1ccc(CN(C)Cc2cccs2)cc1,5%,122%[activator]
CCN(CC)C(=O)c1ccc2oc(CN3CCN(C(=O)Nc4ccc(F)cc4F)CC3)nc2c1,17%,0%
N#Cc1ccc(CN2CCN(CC(=O)Nc3ccccc3C(=O)NC3CCCC3)CC2)cc1,0%,10%
COc1cccc(CN(C(=O)c2oc3cc(Br)ccc3c2C)C2CCS(=O)(=O)C2)c1 (stereo unspecified),-1%,-17%
COc1cn(CC(=O)Nc2cc(C)cc(C)c2)c(CN2CCCCC2)cc1=O,-11%,-20%
O=C1c2ccccc2-c2onc3c(NCCO)cc(NC4CCCCC4)c1c23,1%,-27%
COC(=O)c1ccc(NC(=O)CSc2cn(CC(=O)N3CCCCCC3)c3ccccc23)cc1,5%,-8%
N#Cc1nc(-c2ccccc2F)oc1NCc1ccc2c(c1)OCO2,25%,99%[activator]
Cc1nc(N2CCCC2)c2c(C(=O)N3CCN(c4cccc(C)c4C)CC3)c(C)oc2n1,-17%,?
O=C(NCc1ccccc1Cl)c1ccc2c(O)c(S(=O)(=O)c3ccccc3)c(=O)[nH]c2c1,11%,6%
COc1ccc2nc(NC(=O)c3nc(S(=O)(=O)Cc4ccccc4)ncc3Cl)sc2c1,-8%,39%[activator]
CC(Sc1n[nH]c(-c2cccs2)n1)C(=O)Nc1ccc(F)cc1 (stereo unspecified),21%,10%
CC1(CBr)C2CCC1(C)C1(OCCO1)C21OCCO1 (stereo unspecified),18%,0%
O=C(NCCNc1ccncc1)Nc1ccccc1,-10%,10%
Cc1c2cnn(-c3ccccc3)c(=O)c2c(C)n1CC(=O)N1CCN(c2ccc(F)cc2)CC1,?,?
CC(C)Cn1c(=O)c2ccccc2n2c(-c3cccc(Cl)c3)nnc12,9%,-17%
CC(NC(=O)c1cccc(S(=O)(=O)Nc2ccc(F)cc2)c1)c1ccccc1 (stereo unspecified),118%[activator],-5%
Cc1ccc2oc(-c3cccc(NC(=O)Cc4cccs4)c3)nc2c1,15%,34%[activator]
Cc1ccc(-c2nc3ccccc3o2)cc1NC(=O)COc1ccccc1,-5%,13%

# Whole records from above. Order of values: StopGo RLuc | 2A firefly
# Cc1ccc(-c2nc3ccccc3o2)cc1NC(=O)COc1ccccc1 is entered as -5% | 13%
# CC(C)Cn1c(=O)c2ccccc2n2c(-c3cccc(Cl)c3)nnc12 is entered as 9% | -17%
# Cc1ccc(NC(=O)CSc2nc3cc(C)[nH]c3c(=O)[nH]2)c(Br)c1 is entered as -14% | -3%
# Cc1nc(N2CCCC2)c2c(C(=O)N3CCN(c4cccc(C)c4C)CC3)c(C)oc2n1 is entered as -17% | ?
# CCc1sc(C(=O)NCCC(C)C)cc1C is entered as 0% | 66%[activator]

# (listing goes on)
SMILES,StopGo RLuc,2A firefly
CCN(Cc1ccccc1)C(=O)CN(c1ccc(OC)cc1)S(=O)(=O)c1c(C)nn(C)c1C,22%,-20%
CCC(C)(C)NC(=O)/C(=C/c1ccccc1)c1ccccc1,22%,0%
CN(CCC#N)C(=O)COc1cc(Cl)ccc1C(N)=O,-3%,2%
Cc1ccc(-c2c(C(=O)Nc3ccc(F)c(F)c3)oc(=O)c3ccccc23)cc1,11%,-2%
CC1CCN(S(=O)(=O)c2ccc3nc(Nc4cccc(C(F)(F)F)c4)ccc3c2)CC1,-6%,-2%
COCCOc1nc2c(c(=O)n(C)c(=O)n2C)n1Cc1ccccc1,?,?
CCCNC(=O)Cn1nc(-c2ccc(OC)cc2)c2cnc3ccc(F)cc3c21,-13%,35%[activator]
Cc1ccc(NC(=O)Cn2nnc(-c3nc(-c4ccc(C)cc4)no3)c2N)cc1,1%,15%
CC(C)Oc1ccccc1/C=N/O,2%,6%
COc1ccc(-n2c(CCC(=O)O)ccc2-c2ccccc2)cc1,-13%,-4%
O=c1cc(-c2ccccc2)n2c(SCc3ccccc3Cl)nnc2[nH]1,-4%,-17%
COCCn1c(SCC(=O)c2ccc(C)cc2C)nc2cc(C(=O)NC3CCCC3)ccc2c1=O,7%,-1%
COc1cccc(-c2noc(CSc3nc(C4CC4)n(-c4ccccc4)n3)n2)c1,8%,0%
O=C(Nc1ccc(C(O)(C(F)(F)F)C(F)(F)F)cc1)c1ccccc1Cl,22%,65%[activator]
Cc1ccc(NC(=O)C2CCCN(c3ncnc4onc(C)c34)C2)c(Cl)c1 (stereo unspecified),-5%,4%
CCOc1ccccc1NC(=O)COc1cccc2c(=O)n(CCOC)ccc12,11%,-5%
COc1cc(OC)c2cc(C(=O)N3CCC(c4nnc5ccccn45)CC3)n(C)c2c1,35%[activator],45%[activator]
CN1CCN(CCCNC(=O)c2cnn(-c3ccc(F)cc3)c2-n2cccc2)CC1,-11%,-5%
CCCCn1c(N)c(N(C)C(=O)c2cc(CCC)c(C)s2)c(=O)[nH]c1=O,-12%,-19%
CC(=O)Nc1ccc(C(=O)CSc2ccc(Cl)cc2)cc1,43%,0%
O=C(CCc1nc(-c2ccc(F)cc2)no1)Nc1cccc(S(=O)(=O)NC2=NCCC2)c1,16%,15%
Cc1cc(C)cc(OCC(=O)NCCc2nc3ccccc3[nH]2)c1,-11%,28%
COc1cc(OC)c(NC(=O)NCc2ccc3c(c2)CCN3C(C)=O)cc1Cl,-4%,-9%
Cc1onc(-c2c(F)cccc2Cl)c1C(=O)Nc1sc(C)c(C)c1C(N)=O,?,?
Cc1nc2c(c(C)nn2-c2ccccc2)c(C)c1CCC(=O)NCc1ccccc1,-10%,-15%

# Nothing new here: entries from further up.
SMILES,StopGo RLuc,2A firefly
CC(=O)Nc1ccc(C(=O)CSc2ccc(Cl)cc2)cc1,43%,0%
O=C(CCc1nc(-c2ccc(F)cc2)no1)Nc1cccc(S(=O)(=O)NC2=NCCC2)c1,16%,15%
Cc1cc(C)cc(OCC(=O)NCCc2nc3ccccc3[nH]2)c1,-11%,28%
COc1cc(OC)c(NC(=O)NCc2ccc3c(c2)CCN3C(C)=O)cc1Cl,-4%,-9%
Cc1onc(-c2c(F)cccc2Cl)c1C(=O)Nc1sc(C)c(C)c1C(N)=O,?,?
Cc1nc2c(c(C)nn2-c2ccccc2)c(C)c1CCC(=O)NCc1ccccc1,-10%,-15%

# Source: PubChem BioAssay (National Center for Advancing Translational Sciences (NCATS))

# Not all compounds are listed. The share of hits here may be higher or lower than overall.
